# Screens deposited in PubChem by National Center for Advancing Translational Sciences (NCATS).
# HPGD block: qHTS Assay for Inhibitors of HPGD (15-Hydroxyprostaglandin Dehydrogenase) | purified HPGD, NADH fluorescence kinetic, PGE2 substrate | Potency, µM, without a hit: at the top dose activity change, negative = inhibition, actives largely listed as inhibitors | 150,000 compounds, 4.3% hits; active = well fitted inhibition curve with a large enough effect (not every such curve was filed as active); inconclusive = small, poorly fitted or top-dose-only effect, or another doubt; inactive = no such curve, though single readings can be large or run the other way;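 further: top concentration of the series not given in the record; plate controls included wells without enzyme; inactives centre near -10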
# Target sequence (P15428 whole entry, looked up): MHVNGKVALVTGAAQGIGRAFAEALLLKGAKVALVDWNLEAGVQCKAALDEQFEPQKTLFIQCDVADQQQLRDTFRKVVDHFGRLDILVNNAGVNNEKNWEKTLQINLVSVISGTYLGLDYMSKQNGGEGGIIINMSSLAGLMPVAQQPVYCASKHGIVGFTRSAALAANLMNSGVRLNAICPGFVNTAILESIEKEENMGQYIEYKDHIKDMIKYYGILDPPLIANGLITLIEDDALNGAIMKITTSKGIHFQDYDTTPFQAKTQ
#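 NADH formation kinetics: reaction with 30 uM PGE2 and 1 mM NAD+ (final), 20 nM enzyme, Tris-HCl pH 8 with Tween 20, after 15 min compound preincubation at room temperature. Fluorescence change, last versus first of five reads.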
# * marks the source's active call; other numbers are inactive results; ? = inconclusive; & = joins results of further samples. On the % scale 0 is the no-effect control and ±100 the full control effect; potency means the concentration at half of the fitted maximal effect.
no. | SMILES | HPGD block
1 | CC(NC(=O)CN1CCN(c2ncccn2)CC1)c1ccc(F)cc1 (configuration not stated) | 1.7%
2 | O=C(c1cccc(F)c1)N1CCCN(C(=O)c2cccc(F)c2)CC1 | -0.3%
3 | Oc1cc(Cc2ccccc2)cnc1CN1CCOCC1 | -8.0%
4 | Cc1cc(=O)[nH]c(SCC(=O)C23CC4CC(CC(C4)C2)C3)c1C#N | -18.4%
5 | O=C(NCc1cccnc1)c1cnc2n(c1=O)CCS2 | -13.9%
6 | CCNC(=S)N1CCC(c2nc3cc(C)c(C)cc3[nH]2)CC1 | -14.2%
7 | CCCN=C(Nc1ccc(Cl)cc1)c1cccnc1 | -5.0%
8 | CCOc1ccc(NC(=O)c2cccc(OC(=S)N3CCC(C)CC3)c2)cc1 | -0.4%
9 | Cn1cnnc1SCC(=O)Nc1sc2c(c1C#N)CCCCC2 | -13.3%
10 | CC(=O)N[C@H](Cc1c[nH]c2ccccc12)C(=O)O | 1.1%

# New compounds follow:
no. | SMILES | HPGD block
11 | Cc1ccc(-n2c(=O)c(C#N)cc3c(=O)n4ccccc4nc32)cc1 | ?
12 | Oc1ccc(-c2onc(C(F)(F)F)c2-c2cscn2)c(O)c1 | -20.3%
13 | O=C1c2ccccc2C(=O)N1c1ncccn1 | -0.1%
14 | CCc1ccc(NS(=O)(=O)c2cccs2)cc1 | -26.8%
15 | COC(=O)C=P(c1ccccc1)(c1ccccc1)c1ccccc1 | -8.5%
16 | COc1ccc(N2C(=O)CC(Sc3nccc(C)n3)C2=O)cc1 (configuration not stated) | -2.2%
17 | CC1CN(C(=O)CN2C(=O)c3ccccc3C2=O)CC(C)O1 (configuration not stated) | 0.1%
18 | COC(=O)c1cc(NS(=O)(=O)c2ccc(N3CCOCC3)c(NC(C)=O)c2)cc(C(=O)OC)c1 | -0.8%
19 | Nc1c(S(=O)(=O)c2ccccc2)c2nc3ccccc3nc2n1/N=C/c1ccco1 | ?
20 | COc1cccc(CNc2nc3nc(C)c(Cl)c(C)n3n2)c1 | -29.1%

# Later entries.
no. | SMILES | HPGD block
21 | COc1ccc2c(c1)c(=O)c(C(=O)c1ccccc1)cn2Cc1ccccc1 | -7.0%
22 | CC(=O)Nc1ccc(S(=O)(=O)N(c2cccnc2)S(=O)(=O)c2ccc(NC(C)=O)cc2)cc1 | 11.2µM*
23 | CCN1C(=O)c2cccc3c(S(=O)(=O)NCc4ccccn4)ccc1c23 | ?
24 | Cc1ccc(NC(=O)COC(=O)c2csc3c2CCC(C)C3)cc1S(=O)(=O)N1CCCCC1 (configuration not stated) | -17.8%
25 | O=C(O)COc1ccc(C(=O)c2cccs2)c(Cl)c1Cl | -22.7%
26 | CC(C)C(=O)N1CCN(CCN=CC2=C(O)CC(c3ccco3)CC2=O)CC1 (configuration not stated) | -11.1%
27 | Cc1ccc2nsnc2c1NC(=S)NC(=O)c1ccco1 | -20.7%
28 | COC(=O)C(Cc1ccccc1)P(=O)(c1ccccc1)c1ccccc1 (configuration not stated) | -6.2%
29 | O=C(O)c1cccc(N2CCCC2=O)c1 | 20µM*
30 | Cc1cc(=O)[nH]c(SCC(=O)Nc2ccc(S(=O)(=O)N3CCOCC3)cc2)n1 | -7.9%

# (cont.)
no. | SMILES | HPGD block
31 | CCOc1cc(C(=S)N2CCC(O)CC2)ccc1OS(=O)(=O)c1ccc(Br)cc1 | -29.2%
32 | COc1ccc(NC(=O)CN(Cc2ccccc2)S(C)(=O)=O)c(OC)c1 | -4.8%
33 | COCCNC(=S)N/N=C(\C)c1ccc(O)cc1 | -14.6%
34 | CCN1CCN(c2nc3ccccc3nc2C(C#N)S(=O)(=O)c2ccc(C)c(C)c2)CC1 (configuration not stated) | -14.7%
35 | CCCOC(=O)c1ccc(NC(=O)c2cnccn2)cc1 | -19.2%
36 | CC12CC3CC(C)(C1)CC(C(=O)NC(=S)N1CCCCC1)(C3)C2 | -6.1%
37 | Cc1cccc(NC(=S)NNC(=O)Cc2ccccc2)c1 | -18.5%
38 | O=C(O)c1ccc(CSc2nc(-c3ccc(Cl)cc3)cc(C(F)(F)F)n2)cc1 | 12.6µM*
39 | O=C(O)C1CC=CCC1C(=O)Nc1cccc(F)c1 (configuration not stated) | -21.0%
40 | CC1CCCN(C2=C(Cl)C(=O)N(c3cccc(Cl)c3)C2=O)C1 (configuration not stated) | -19.7%

# Additional compounds.
no. | SMILES | HPGD block
41 | CCOC(=O)c1cccc(NC(=O)CSc2nc(N)cc(N)n2)c1 | 0.4%
42 | O=C(CSc1nc2ccsc2c(=O)n1-c1ccccc1)N1CCCC1 | -8.7%
43 | O=C(Cn1c(=O)oc2cc(S(=O)(=O)N3CCCCC3)ccc21)N1CCc2ccccc2C1 | -4.7%
44 | CCOC(=O)c1c(C)nn(Cc2cccc(Cl)c2)c1N | 28.2µM*
45 | O=C(CSc1nnc(COc2ccccc2F)n1-c1ccccc1)NC1CCS(=O)(=O)C1 (configuration not stated) | -0.5%
46 | CCN(c1ccccc1)c1nc2ccsc2c(=O)s1 | -22.6%
47 | COc1ccccc1C/C(N)=N/OC(=O)c1ccc(C)c([N+](=O)[O-])c1 | -27.4%
48 | O=C1CC(c2ccccc2)CC(O)=C1C=NC1CCCC1 (configuration not stated) | -7.2%
49 | Cc1ccc(-c2nsc3c(N4CCC(C(N)=O)CC4)ncnc23)cc1 | -13.7%
50 | Cc1nn(Cc2ccc(Cl)cc2)c(C)c1N | -5.8%

# Records listed above printed as active in HPGD block.
no. | SMILES | HPGD block
22 | CC(=O)Nc1ccc(S(=O)(=O)N(c2cccnc2)S(=O)(=O)c2ccc(NC(C)=O)cc2)cc1 | 11.2µM*
29 | O=C(O)c1cccc(N2CCCC2=O)c1 | 20µM*
38 | O=C(O)c1ccc(CSc2nc(-c3ccc(Cl)cc3)cc(C(F)(F)F)n2)cc1 | 12.6µM*
44 | CCOC(=O)c1c(C)nn(Cc2cccc(Cl)c2)c1N | 28.2µM*

# Later entries:
no. | SMILES | HPGD block
51 | Cc1cccc(OCCNC(=O)c2cncc(Br)c2)c1 | 0.4%
52 | Cc1cc2ccc(OC(=O)c3ccc(N=C(N)N)cc3)cc2oc1=O | ?
53 | CCN(CC)CCCC(C)Nc1ccnc2cc(Cl)ccc12 (configuration not stated) | -9.3%&-5.1%
54 | CC1(C)C2CCC1(CS(=O)(=O)Nc1ccc(S(=O)(=O)N3CCCCC3)cc1)C(=O)C2 (configuration not stated) | -4.4%
55 | CCCS(=O)(=O)N1CCCC(C(=O)NC2CCCC(C)C2C)C1 (configuration not stated) | -5.9%
56 | Cc1ccc(Cl)cc1NC(=O)CCn1cccc1 | -12.5%
57 | CN(C)CCCOC(=O)COc1ccc(C(C)(C)C)cc1 | -0.9%
58 | O=C(Nc1ccc(Oc2nnc(-c3ccccc3)c3ccccc23)cc1)c1ccccc1 | 2.8%
59 | O=C(NC(=S)NCCOCc1ccc(Cl)cc1)c1cccnc1 | -3.0%
60 | CC(C)(C)OC(=O)N1CCC(C(=O)N2CCC[C@H]2C(=O)O)CC1 | -4.5%

# Following part:
no. | SMILES | HPGD block
61 | O=C(O)CCNc1ncnc2nc[nH]c12 | -2.2%
62 | Cc1cccc(NC(=O)CSc2nnc(-c3ccccc3Br)o2)c1C | -5.3%
63 | c1ccc(-c2nc(NCCCn3ccnc3)c3oc4ccccc4c3n2)cc1 | -6.0%
64 | Cc1ccc(NC(=O)c2cc(NC(=O)c3ccco3)ccc2N2CCCCC2)cc1 | ?
65 | CCOC(=O)c1c(C)oc2ccc(OCC(=O)N(CC)CC)cc12 | -25.8%
66 | Clc1cc(Cl)cc(CSc2nnc(-c3sccc3-n3cccc3)o2)c1 | -2.7%
67 | CCOC(=O)CN1CC23C=CC(O2)C(C(=O)Nc2ccc(F)c(C)c2)C3C1=O (configuration not stated) | -6.4%
68 | CCCCc1nc(NCCNC(=O)c2ccco2)c(C#N)c2c1CSC(C)(C)C2 | ?
69 | CS(=O)(=O)N1CCC2(CCN(c3cccc(-c4ccccc4)c3)CC2)CC1 | ?
70 | O=S(=O)(NCc1cccnc1)c1cc(Cl)ccc1Cl | -4.3%

# Single entries from the results shown:
# entry 63 @ HPGD block = -6.0%
# entry 65 @ HPGD block = -25.8%
# entry 67 @ HPGD block = -6.4%
# entry 62 @ HPGD block = -5.3%

# Carrying on.
no. | SMILES | HPGD block
71 | N#Cc1cc(-c2ccc(Cl)cc2)cnc1Sc1ccccc1 | -9.3%
72 | C=CCNCCCCOc1ccccc1 | -5.8%
73 | COc1ccc(C(=O)Nc2nccs2)cc1OC | -19.4%
74 | Nc1ccccc1-c1nnc(SCc2ccccc2Cl)[nH]c1=O | -10.0%
75 | Cc1ccc(NC(=O)CSC2=C(C#N)C(c3ccc4c(c3)OCO4)C3=C(CCCC3=O)N2)c(C)c1 (configuration not stated) | ?
76 | CCOC(=O)c1ccc(NS(=O)(=O)N2CCCCCC2)cc1 | ?
77 | Cc1ccc(C)c(NC(=S)NCc2cccs2)c1 | -17.1%
78 | CCOC(=O)CNc1ncnc2nc[nH]c12 | -11.0%
79 | CCOC(=O)c1nnn(-c2nonc2N)c1-c1cccc2ccccc12 | -18.9%
80 | CN1CCN(c2ccc(S(=O)(=O)N3CCCCC3)cc2NC(=O)Cc2ccccc2F)CC1 | 3.8%

# Pulled by compound from the entries so far, 3 records:
no. | SMILES | HPGD block
78 | CCOC(=O)CNc1ncnc2nc[nH]c12 | -11.0%
15 | COC(=O)C=P(c1ccccc1)(c1ccccc1)c1ccccc1 | -8.5%
50 | Cc1nn(Cc2ccc(Cl)cc2)c(C)c1N | -5.8%

# Other records:
no. | SMILES | HPGD block
81 | Cc1ccc(N(CC(=O)Nc2ccc3c(c2)OCCO3)S(=O)(=O)c2c(C)noc2C)cc1 | -23.3%
82 | O=C(c1ccccc1)c1ccc(C(=O)N2CCOCC2)cc1 | 7.94µM*
83 | Cc1ccc(OCc2nnc(SCC(=O)O)n2N)cc1 | -6.8%
84 | O=C(CCC(=O)NNC(=O)COc1ccccc1)NCc1ccccc1 | -0.2%
85 | C(=C\c1ccccc1)/C=N/Nc1nc(N2CCCCC2)nc(N2CCCCC2)n1 | -3.4%
86 | CCCC(=O)c1ccc(N2CCN(S(=O)(=O)c3ccccc3)CC2)c(F)c1 | -15.5%
87 | CN(C(=O)COc1ccccc1)c1nnc(C23CC4CC(CC(C4)C2)C3)s1 | -27.9%
88 | COCc1cc(C)nc(SCC(=O)Nc2ccccc2C)c1C#N | -18.9%
89 | NC(=O)CCCCC(N)=O | -16.7%
90 | CC(=O)N1CCN(Cc2nc3cc(NC(=O)c4ccccc4)ccc3n2C)CC1 | -13.4%

# (list continues)
no. | SMILES | HPGD block
91 | Nc1cc(N)nc(SCCOc2ccccc2)n1 | -13.1%
92 | CN(C)CC/C=C1\c2ccccc2COc2ccccc21 | -8.3%&-2.2%&2.7%&-2.3%
93 | CCC(OC(=O)c1cc2sccc2n1C)C(=O)NCC1CCCO1 (configuration not stated) | -15.0%
94 | Nc1cc(Cl)c(N)c(Cl)c1 | -11.3%
95 | O=C(CCS(=O)(=O)c1ccc(Cl)cc1)N1CCN(S(=O)(=O)c2cccs2)CC1 | -17.2%
96 | COc1ccc(Nc2nc(-c3c[nH]c4ccccc34)cs2)cc1 | -11.8%
97 | CCOC(=O)CC1=C(C(=O)OCC)C(c2ccc(OC)cc2OC)C(C#N)=C(N)O1 (configuration not stated) | -5.8%
98 | CCOc1ccc(/C=N/O)cc1 | -15.3%
99 | CC1(C)CC(=O)C2=C(C1)OC(N)=C(C#N)C21CCN(Cc2ccccc2)CC1 | -1.1%
100 | CCC(=O)N1CCN(c2ccc(NC(=O)c3ccc(-c4ccccc4)cc3)cc2)CC1 | -7.1%

# The results go on.
no. | SMILES | HPGD block
101 | Cc1c(Cl)cccc1N1C(=O)C2ON(c3ccccc3)C(c3cccnc3)C2C1=O (configuration not stated) | 0.7%
102 | COc1ccccc1-c1cc(=O)c2cc(O)ccc2o1 | 15.8µM*
103 | Cc1ccc(-c2cc(C(=O)N3CCN(c4ncccn4)CC3)c3ccccc3n2)cc1 | -14.6%
104 | N#Cc1ccccc1NC(=O)COC(=O)c1ccc2c(c1)OCCO2 | -8.4%
105 | CCn1c(CSc2nccn2C)nc2cc(C(=O)O)ccc21 | ?
106 | COc1cccc(NC(=O)C(NCC2CCCCC2)c2ccccc2)c1 (configuration not stated) | -3.7%
107 | O=C(NCc1cccc(C(F)(F)F)c1)C1CCN(c2ncccn2)CC1 | -10.1%
108 | O=C(NC1CCCCC1)C1(c2ccccc2)CC1(Cl)Cl (configuration not stated) | -5.4%
109 | Cc1ccc(S(=O)(=O)NCc2ccc(C(=O)N3CCN(c4ccccn4)CC3)cc2)cc1 | -5.8%

# An excerpt from above in order of length of the SMILES, descending.
no. | SMILES | HPGD block
106 | COc1cccc(NC(=O)C(NCC2CCCCC2)c2ccccc2)c1 (configuration not stated) | -3.7%
108 | O=C(NC1CCCCC1)C1(c2ccccc2)CC1(Cl)Cl (configuration not stated) | -5.4%
102 | COc1ccccc1-c1cc(=O)c2cc(O)ccc2o1 | 15.8µM*

# These rows are one share of the data. The share of hits here may be higher or lower than overall.
